S aureus helic: inhibitors of S. aureus replicative helicase, primary screen, biochemical, fluorescence unwinding readout; replicative DNA helicase (DnaC/DnaB), Staphylococcus aureus; purified S. aureus helicase, fluorescence unwinding assay; about half of the hits fall short of the stated cut; inhibition, %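 (tested at about 80 µM)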; 120,000 tested, 0.05% active; AID 485395, 2010;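 active = both duplicates at 50% or more, or one of them with a favoured structure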;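 also: 0% = mean of negative control wells and 100% = mean of positive control wells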
MgrA DNA FP: S. aureus MgrA activity modulators, primary screen, biochemical, S. aureus Newman, fluorescence polarization | MgrA-DNA binding | 84,000 tested, 0.13% active | inhibition, %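 (about 10 µg/mL by stock and volumes)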 | AID 602314, 2012;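 active = above 50% in either of two replicates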;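 also: 0% = protein plus DNA without compound and 100% = DNA alone without protein; higher means less MgrA bound to DNA so lower polarization; one replicate is shown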
* hit, by the source's call; . = no result given.

SMILES	S aureus helic	MgrA DNA FP
Cc1ccc(Cl)c(NC(=O)Cn2c(N)nc(C#N)c2C#N)c1	-10.0	.
O=C(O)c1cccc(=S)[nH]1	-7.0	.
COC(=O)c1ccccc1NC(=O)COCc1cc(-c2ccc3c(c2)OCO3)on1	11.0	.
COc1ccccc1NS(=O)(=O)c1ccc(NC(=O)c2nc3ncccn3n2)cc1	8.0	.
O=c1cc(O)c2sc(SCCN3CCOCC3)nc2[nH]1	12.0	1.3
CN(C)S(=O)(=O)c1ccc(SCC(=O)N2CCNC2=O)nc1	-7.0	.
Cc1ccc2cc(CN(CCO)C(=O)NCc3ccccc3)c(=O)[nH]c2c1	-2.0	-0.6
O=C(CSC(=O)c1ccccc1)Nc1ccc(C(F)(F)F)cc1	21.0	2.9
Brc1ccc(-c2nc3ccccn3c2Sc2ccccc2)cc1	.	4.3
O=C(COC(=O)C1CCCCC1)Nc1cccc(F)c1	10.0	-1.6
CCCc1cnc(N2CCSCC2)nc1	.	-0.2
C/C(=N\NC(=O)c1ccoc1C)c1cccc2ccccc12	12.0	.
CCN(CC(=O)NCc1ccc(F)cc1)C(=O)c1ccc(C)o1	-4.0	.
c1ccc(-c2ccc(-c3csc(-c4cccnc4)n3)cc2)cc1	.	-0.4
Cc1nc2nc(-c3ccccc3)cn2nc1C	-3.0	2.2
O=C(NC1CC1)c1cc2c(ccc3ccccc32)oc1=O	5.0	-1.3
Cc1c(Cl)c(-c2n[nH]c(=S)n2Cc2ccco2)nn1C	20.0	.
CSc1scc2c1-c1nc(SCC(=O)C(C)(C)C)ncc1CC2	.	2.5
CCn1cnc2c(cnn2-c2ccc(Cl)cc2)c1=O	-3.0	.
C=CCn1c(=O)[nH]c(=O)c2c(N)c(C(=O)c3ccc(OC)cc3)sc21	9.0	.
Cc1ccc(CN2C(=O)CSc3ccc(NC(=O)NC4CCC(C)CC4)cc32)cc1 (stereo unspecified)	6.0	1.1
Cn1[nH]c(Nc2ccccc2Cl)c(N=Nc2ccccc2)c1=O	-4.0	.
Cc1sc2nc(-c3cccc([N+](=O)[O-])c3)oc(=O)c2c1C	.	-0.5
FC(F)(F)c1cnc(N2CCN(CCOCc3ccc(Cl)cc3)CC2)c(Cl)c1	.	-1.6
CCn1c(O)c(C#N)c(C)cc1=O	.	-0.4

Entries shown so far that contain a cyano group:
SMILES	S aureus helic	MgrA DNA FP
Cc1ccc(Cl)c(NC(=O)Cn2c(N)nc(C#N)c2C#N)c1	-10.0	.
CCn1c(O)c(C#N)c(C)cc1=O	.	-0.4

(continued)
SMILES	S aureus helic	MgrA DNA FP
CC(C)(C)c1ccc(NC(=O)NC2Cc3ccccc3C2)cc1	.	-3.7
CCCC(C)C(=O)Nc1nc2ccccc2s1 (stereo unspecified)	17.0	3.5
Cc1ccc(NC(=O)/C=C/c2ccc(-c3ccccc3)o2)cc1	8.0	.
CC1CCN(C(=O)c2cc3ccccc3o2)CC1	16.0	4.2
N#C/C(=C\Nc1ccccn1)C(=O)C1CC1	-32.0	.
N#C/C(=C/c1cccc2ccccc12)c1ccccc1	4.0	-2.2
COc1ccccc1C1CC(=O)CC(c2ccccc2OC)S1 (stereo unspecified)	7.0	.
COC(=O)c1sccc1N(C)S(C)(=O)=O	.	-2.1
COc1cc2c(cc1N=Cc1cccnc1)oc1ccccc12	-18.0	-0.8
O=S(=O)(/C=C/c1ccccc1)N1CCN(c2ncc(C(F)(F)F)cc2Cl)CC1	-6.0	.
CC1CC(=O)Nc2ccccc2N1S(=O)(=O)c1cccc2nonc12 (stereo unspecified)	-19.0	.
Cc1nc(/N=C(\N)NC(=O)NC2CCCCC2)nc2ccccc12	8.0	.
CCCc1nnc(N)s1	7.0	0.0
CN(C(=O)CSc1nc2ccccc2n1CCC#N)c1ccccc1	-9.0	.
COC(=O)c1cc(CN2c3cccc4cccc(c34)S2(=O)=O)oc1C	4.0	.
COc1ccccc1NC(=O)COc1ccc2oc3c(c2c1)CCCC3	4.0	2.5
COc1cc2c(cc1NC(=O)COCC(=O)O)oc1ccccc12	-4.0	.
O=C(CCCN1C(=O)c2ccccc2C1=O)NCc1ccco1	18.0	.
COc1ncnc(OC)c1C	.	-0.2
CC(Sc1ccc2nnc(-c3cccnc3)n2n1)C(=O)O (stereo unspecified)	4.0	.
COc1ccc(COCC(O)CNC2CCC(C)CC2)cc1 (stereo unspecified)	0.0	.
Nc1nonc1C(=O)N1CCCC1	-6.0	1.4
COc1ccccc1NCc1ccccc1Oc1ccc(S(=O)(=O)N2CCCC2)cn1	14.0	.
N#CCSc1cccc2cccnc12	15.0	8.9
COc1ccc(N2CC(NC(=O)N3C(C)CCCC3C)CC2=O)cc1 (stereo unspecified)	4.0	.

Further entries:
SMILES	S aureus helic	MgrA DNA FP
COc1cc(C)c(N)cc1OC	-19.0	-1.5
c1ccc(CCCc2nn3c(-c4cccs4)nnc3s2)cc1	17.0	1.0
O=C(OCC1CC(c2ccccc2)=NO1)c1ccco1 (stereo unspecified)	.	-0.4
C(=N\NC1=NCCCCC1)/c1ccc2c(c1)OCO2	11.0	.
Nc1nc(N)nc(CN2C(=O)NC(c3ccccc3)(c3ccccc3)C2=O)n1	-7.0	.
CCN1CCN(C(=O)CCSc2ccc(C)cc2)CC1	16.0	4.8
CC1(C)Cc2cccc(OCC(=O)NC3CC3)c2O1	-9.0	.
COc1ccc(C2C(=O)c3ccccc3C2=O)c(OC)c1	2.0	-0.1
O=C(COc1ccc(Br)cc1)NC1CC1	5.0	-0.5
CC1=NC(=O)C2C(=O)O/C(=C/c3ccc4c(c3)OCO4)C2=C1 (stereo unspecified)	7.0	.
Cc1ccc(S(=O)(=O)Nc2nc3c(s2)C(=O)CC(C)(C)C3)cc1	0.0	-4.7
O=C(Nc1nc2ccccc2s1)C1CCCO1 (stereo unspecified)	3.0	-3.9
O=C(COc1ccc(Cl)cc1)Nc1nonc1NC(=O)COc1ccc(Cl)cc1	-1.0	-2.5
Cc1cc(I)c(C)cc1I	.	-1.2
COc1cc(S(=O)(=O)N2CCN=C2c2ccccc2)ccc1F	8.0	1.1
S=C(NC1CCCCC1)N1CCn2c(nc3ccccc32)C1	16.0	.
CC(C)CNc1ncnc2onc(-c3cccc(Cl)c3)c12	-10.0	.
Nc1c(C(=O)C2CC2)oc2ccccc12	11.0	0.6
Nc1nc(-c2ccc(Cl)cc2)c(N=Nc2ccc(S(=O)(=O)N3CCOCC3)cc2)s1	-19.0	.
CS(=O)(=O)c1nc2ccccc2n1Cc1ccccc1F	-10.0	-1.7
CC1=CC(=C2C(=O)NC(=S)NC2=O)C=C(C(F)(F)F)O1	19.0	6.0
CCN(CC)S(=O)(=O)c1cccc(-c2nnc(SCC(=O)Nc3cc(C)ccc3C)o2)c1	14.0	.
CCOC(=O)c1cnc2c(c(C)nn2C)c1Sc1nnc(SC)s1	.	1.4
CCc1sc(C(=O)O)cc1C	20.0	-3.0
Cc1nc2[nH]c(=S)[nH]c2cc1Br	-3.0	.

Record cards, as listed above. Order of screens: S aureus helic, MgrA DNA FP
Entry for `Nc1c(C(=O)C2CC2)oc2ccccc12` = 11.0, 0.6
Entry for `CCOC(=O)c1cnc2c(c(C)nn2C)c1Sc1nnc(SC)s1` = ., 1.4
Entry for `CC1=NC(=O)C2C(=O)O/C(=C/c3ccc4c(c3)OCO4)C2=C1` (stereo unspecified) = 7.0, .
Entry for `Nc1nc(N)nc(CN2C(=O)NC(c3ccccc3)(c3ccccc3)C2=O)n1` = -7.0, .
Entry for `O=C(OCC1CC(c2ccccc2)=NO1)c1ccco1` (stereo unspecified) = ., -0.4

The list continues:
SMILES	S aureus helic	MgrA DNA FP
CN(C(=O)c1ccc2c(=O)n3c(nc2c1)CCCCC3)C1CCCCC1	3.0	4.2
CC(=O)NC(C)Cc1cn(Cc2ccccc2)c2ccccc12 (stereo unspecified)	13.0	.
O=C(Cc1ccc(-n2c(=O)c3sccc3n(Cc3ccccc3F)c2=O)cc1)NCc1ccco1	7.0	.
Cc1nc2c([nH]c3ccc(Br)cc32)s1	34.0	.
COc1ccc2c(c1)CCCN2Cn1nc(COc2ccccc2)n(C)c1=S	1.0	-0.5
COc1ccccc1NC(=O)C1OCCc2ccccc21 (stereo unspecified)	-4.0	.
COc1cc(OC)c(OC)cc1CN(C)C1CCN(C)CC1	14.0	-5.5
CC1SC(C)C(=O)N(CC(=O)NCCc2ccccc2)C1=O (stereo unspecified)	-3.0	.
O=C(C1CCN(S(=O)(=O)c2ccc3c(c2)OCCO3)CC1)N1CCN(c2nc3ccccc3s2)CC1	-6.0	1.3
Cc1cc(C)c2c(N)c(C#N)sc2n1	-9.0	.
CCn1c(N)c(C(=O)COC(=O)CCc2nc3ccccc3c(=O)[nH]2)c(=O)[nH]c1=O	-4.0	.
O=C(NC12CC3CC(CC(C3)C1)C2)c1cccnc1Cl	25.0	.
CC(=O)Nc1ccc2c(c1)OCO2	16.0	-3.3
CC1(C)CC(N2N=C(N)CC2=O)CCO1 (stereo unspecified)	15.0	1.1
Cc1ccc(-c2nc(N3CCOCC3)nc3ccccc23)cc1	4.0	.
COc1ccc(N2CCN(C(=O)c3ccc(=O)[nH]c3)CC2)cc1	2.0	.
CC(=O)Nc1nnc(SCc2ccc(C(F)(F)F)cc2)s1	-15.0	.
COc1ccccc1N=c1sc(C2=c3ccccc3=NC2=O)c(O)n1-c1ccccc1OC	.	-1.9
Cc1cc(C)c2c(-n3cccc3)nn(Cc3ccc(C(=O)NC4CC4)cc3)c2n1	17.0	.
COc1ccc(NC(=S)NCCc2c[nH]c3ccccc23)c(OC)c1	4.0	-4.6
COc1cccc(-n2cc(C(=O)N3CC=C(c4ccccc4)CC3)c3ccccc3c2=O)c1	13.0	1.0
CCCCn1c2ccccc2n2cc(-c3ccc4c(c3)OCO4)nc12	12.0	-2.8
O=C(CCSCCc1ccccn1)Nc1cc(-c2cccc(Cl)c2)no1	19.0	.
Cc1ccc(C(=O)Sc2ncc(C(F)(F)F)cc2Cl)cc1	.	-0.6
CC(Oc1ccc(C#N)cc1)C(=O)Nc1cc(Cl)ccc1-n1cncn1 (stereo unspecified)	22.0	.

Seven of the compounds above, comma-delimited:
mol,S aureus helic,MgrA DNA FP
CSc1scc2c1-c1nc(SCC(=O)C(C)(C)C)ncc1CC2,.,2.5
N#C/C(=C\Nc1ccccn1)C(=O)C1CC1,-32.0,.
c1ccc(CCCc2nn3c(-c4cccs4)nnc3s2)cc1,17.0,1.0
CCn1cnc2c(cnn2-c2ccc(Cl)cc2)c1=O,-3.0,.
CC1=NC(=O)C2C(=O)O/C(=C/c3ccc4c(c3)OCO4)C2=C1 (stereo unspecified),7.0,.
CCCc1cnc(N2CCSCC2)nc1,.,-0.2
Cc1nc2nc(-c3ccccc3)cn2nc1C,-3.0,2.2

(list continues)
SMILES	S aureus helic	MgrA DNA FP
COc1cc(-c2nc3ccccc3c(=O)n2NC(=O)/C=C/c2ccccc2Cl)cc(OC)c1OC	.	-3.1
Cc1ccc(/C=C/C2=NC(=C\c3ccc(C)o3)/C(=O)O2)cc1	-5.0	.
COc1cccc(Cl)c1-c1nc(N)nc(N)n1	.	0.7
O=C(Nc1cccnc1)C1CC(c2ccccc2O)=NO1 (stereo unspecified)	-7.0	-0.1
O=c1[nH]c(-c2cccc(O)c2)nc2c1Cc1ccccc1O2	-15.0	.
COc1ccccc1/C=C1/SC(=S)N(CN2CCCCC2)C1=O	.	-1.7
CC(C)(C)c1cc(OC(=O)c2ccc(Cl)cc2Cl)c(C(C)(C)C)cc1OC(=O)c1ccc(Cl)cc1Cl	.	-2.7
COCCNC(=S)N1CCC(Cc2ccccc2)CC1	7.0	1.8
O=C(NCc1cn2ccsc2n1)c1cccs1	12.0	-0.6
COC(=O)c1cc(-c2ccc(S(=O)(=O)NCc3ccccn3)cc2)c(C(F)(F)F)s1	.	-1.1
O=C1CCC(=O)N1c1ccccc1	7.0	-0.8
CCC(=O)N1CCc2cc(S(=O)(=O)NC(CC(C)C)C(=O)N3CCC(C)CC3)ccc21 (stereo unspecified)	11.0	3.8
O=C(NCc1cc(F)cc2c1OCOC2)c1ccno1	.	1.8
CCC(C)(C)NC(=O)c1ccc2c(c1)N(CC#N)C(=O)C(C)(C)O2	-5.0	0.4
O=C(CN1CCN(c2ccccc2Cl)CC1)N1CCc2ccccc21	-2.0	.
O=C(NCCN1CCOCC1)Nc1c[nH]c2ccccc12	13.0	.
Cc1noc(C)c1CCC(=O)Nc1ccc(-c2cc3ccccc3o2)cc1	5.0	.
COc1cc(Br)c(OC)cc1Br	.	-0.1
COc1ccc(C(=O)OCC(=O)N2c3ccccc3CC2C)cc1 (stereo unspecified)	-10.0	.
COc1ccccc1NC(=O)Cc1coc2c(C)c(C)ccc12	-13.0	1.5
CN1CC(c2ccccc2)Oc2ccccc2C1=O (stereo unspecified)	.	-2.3
COc1ccc2nc(SCC(=O)c3ccc4c(c3)OCO4)[nH]c2c1	5.0	.
CCCc1nn2cc(CC(=O)NN)nc2s1	8.0	.
Cc1ccc(N=Cc2ccc(Cl)cc2)cc1C	.	-2.1
COc1ccc2cc(CCNS(C)(=O)=O)c(=O)[nH]c2c1	-20.0	.

Continued:
SMILES	S aureus helic	MgrA DNA FP
CCN1CCN(CC(O)COc2cccc(OC)c2)CC1 (stereo unspecified)	-19.0	.
O=C(CSC(=S)N1CCCCC1)N1c2ccccc2CCc2ccccc21	-15.0	-0.3
Cc1cc2cc(CNC(=O)/C=C\c3ccc4c(c3)OCO4)ccc2[nH]1	21.0	.
c1ccc(Cn2c(C3CC3)nc3ccccc32)cc1	-2.0	-6.3
CCCCc1ccc(NC(=O)C(C)CC)cc1 (stereo unspecified)	-7.0	-1.2
O=C(CCNS(=O)(=O)c1ccccc1)N1CCCC1	7.0	2.0
CC1(C)CC(=O)C(=Cc2cn(CCC#N)nc2-c2ccc(F)cc2)C(=O)C1	-20.0	7.5
COC(=O)c1cc(OC)c(OC)cc1NS(=O)(=O)c1ccc(F)c(F)c1	.	0.7

Assay outcomes: PubChem, ICCB-Longwood Screening Facility, Harvard Medical School

A portion of the library; rates above refer to the full screens.
